# High-throughput results: PubChem BioAssay, National Center for Advancing Translational Sciences (NCATS)
# TRPV1 PAM – enhances activation of the human vanilloid receptor TRPV1; potentiation, % at 8.33 µM; hit rate 0.02% among 320,000; AID 540277; TRPV1-expressing cells, Fluo-8 calcium influx, capsaicin EC20 potentiation; host cell line not named in the record; control for the full effect not named in the record; active means potentiation above 80%; inconclusive means 30% to 80%; inactive means below 30%; note: 0% is about no effect
#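 Fluo-8 calcium influx in TRPV1-expressing cells, kinetic read (ex 480/em 520 nm). Compound added and read 3 min for agonist activity, followed by capsaicin at EC20 final and 2 min further read for enhancement.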
# Sfp inh – blocks B. subtilis Sfp PPTase activity. Biochemical Sfp PPTase activity, qHTS. Q9F4F7. hit rate 3.5% among 310,000. Potency, µM, for the others: max response, negative = inhibition, most hits filed as inhibitors; active = well fitted inhibition curve with a large enough effect; inconclusive = small, poorly fitted or top-dose-only effect, or another doubt; inactive = no such curve, though single readings can be large or run the other way;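 note: the enzyme is Sfp with the accession as filed and its product quenches rhodamine fluorescence; potency is the fitted concentration of half-maximal effect; 0% = enzyme reaction without inhibitor and -100% = no enzyme wells; top concentration of the series not given in the record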
#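 Sfp 15 nM + cpd, 15 min RT; start w/ rhodamine-CoA 5 uM, BHQ-2-YbbR 12.5 uM (final); 50 mM Hepes pH 7.6, 10 mM MgCl2, 0.01% NP-40, 0.01% BSA; read 525/598 nm at 0 and 30 min.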
# ClpP mod – qHTS Assay for Activators of ClpP. ATP-dependent Clp protease proteolytic subunit (Bacillus subtilis (strain 168)), P80244. purified B. subtilis ClpP, FRET peptide cleavage, 20 min. Potency, µM (top dose mostly 57.5 µM), without a hit: at the highest dose activity change, negative = active. hit rate 1.9% among 340,000. AID 651965, 2013; active = well fitted falling curve with a large enough effect; inconclusive = small, poorly fitted or top-dose-only effect; inactive = no such curve, though single readings can be large or run the other way; note: potency is the fitted concentration of half-maximal effect; the source files actives as falling curves though it sought activators and does not explain the sign; nearly all actives have a fitted effect of over 65% in size; many hits overshoot -100%
# Target sequence (P80244 whole entry, looked up): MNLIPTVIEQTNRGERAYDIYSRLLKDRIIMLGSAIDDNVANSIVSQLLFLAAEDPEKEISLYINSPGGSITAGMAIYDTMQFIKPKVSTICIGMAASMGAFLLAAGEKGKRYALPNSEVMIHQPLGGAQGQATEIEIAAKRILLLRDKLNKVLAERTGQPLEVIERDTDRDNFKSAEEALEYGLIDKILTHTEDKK
#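 Buffer: 100 mM Tris/HCl pH8, 100 mM KCl, 0.05% low protease BSA, 2.5% glycerol, 0.01% Tween-20. ClpP 10 microg/mL final; 20 min RT; delta FRET normalized to ADEP and DMSO controls.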
# Menin-MLL FL inh – menin-MLL binding inhibition, fluorescein peptide. Fluorescence polarization, fluorescein-MLL peptide displacement from menin. FP activity change, % at 61.4 µM. 290,000 tested, under 10 active. AID 1766; inconclusive = falling polarisation curve, or a change in total fluorescence; inactive = total fluorescence flat and polarisation flat or rising; no compound was filed as active; the % refers to the polarisation; negative = inhibition;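 note: % of control where 0% means no effect; inhibitors lower the polarisation; unlabelled MLL peptide was the positive control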
# TRPML1 agonist – activates the human TRPML1 channel; Q9GZU1; TRPML1-expressing cells, Ca2+ dye fluorescence, FDSS; host cell line not named in the record; reference of the full effect not given here; activation, % (test concentration not listed); hit rate 0.12% among 410,000; AID 624414; in the data active = activation above about 50%; inconclusive = about 30% to 50%; inactive = below about 30%; note: 0% is about no effect; the text of the record puts the active cut at 80%
# Target sequence (Q9GZU1 whole entry, looked up): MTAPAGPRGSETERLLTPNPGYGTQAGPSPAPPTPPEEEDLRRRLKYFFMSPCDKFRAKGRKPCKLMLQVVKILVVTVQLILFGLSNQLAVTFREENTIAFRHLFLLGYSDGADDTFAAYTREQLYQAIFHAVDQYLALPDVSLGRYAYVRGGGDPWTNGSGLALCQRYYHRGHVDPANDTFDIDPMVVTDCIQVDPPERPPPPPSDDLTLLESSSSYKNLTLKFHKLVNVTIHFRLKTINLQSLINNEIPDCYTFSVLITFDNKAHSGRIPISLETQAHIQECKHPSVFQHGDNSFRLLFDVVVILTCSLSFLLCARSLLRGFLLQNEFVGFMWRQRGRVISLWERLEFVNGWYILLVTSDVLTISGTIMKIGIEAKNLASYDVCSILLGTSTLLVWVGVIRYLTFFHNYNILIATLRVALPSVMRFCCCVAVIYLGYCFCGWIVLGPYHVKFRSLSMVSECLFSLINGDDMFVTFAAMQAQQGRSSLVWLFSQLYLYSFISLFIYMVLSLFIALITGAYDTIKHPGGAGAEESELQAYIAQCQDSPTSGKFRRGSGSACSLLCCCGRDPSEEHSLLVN
#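 Cells: TRPML1-DL, 1X Tet inducer, ~16 h at 37 degrees C/5% CO2. Dye: ABD Ca8 no-wash + quencher, 45-90 min RT. Read: 10 s baseline, compound add, 110 s agonist phase; 54-4 EC80 (4uM final), 110 s antagonist phase.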
# TRPML1 inh – inhibitors of human TRPML1 channel; TRPML1-inducible cells, Ca2+ dye fluorescence, FDSS; hits give low values; inhibition of EC80 agonist-evoked calcium signal; activity change, negative = inhibition, % (test concentration not listed); hit rate 0.02% among 390,000; in the data active means activity change below about -50%; inconclusive means about -30% to -50%; inactive means above about -30%;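 note: stimulus is agonist 54-4 at its EC80 concentration; % is set by controls: 0 for no effect and ±100 for the full control effect; compound concentration not given in the record; the text of the record puts the active cut at -80%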
#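 TRPML1-DL cells, Tet-induced overnight (~16 h, 37 °C) at 1,500 cells/well, were loaded with Ca8 no-wash dye plus quencher for 45-90 min at room temperature. Compounds were pinned during FDSS kinetic reading; agonist 54-4 at EC80 (4 uM final) then added.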
# PINK1 expr mod – modulators of PINK1 expression; PINK1 immunofluorescence, high-content cytometry, 24 h; hit rate 0.2% among 410,000; Potency, µM (titrated, usually from 76.6 µM), for inactives: at the top dose activation (PINK1 increase), usual class: activators; active = well fitted activation curve with a large enough effect; inconclusive = small, poorly fitted or top-dose-only effect; inactive = flat fitted curve, though single readings scatter; cell line not stated here;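 note: potency is the fitted concentration of half-maximal effect; % of control where 0% means no effect; nearly all actives have a fitted effect of over 65% in size; a mitochondrial uncoupler was the plate control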
#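 A stable cell line was treated with compounds at 5 concentrations for 24 hours, with CCCP as control. PINK1 levels and mitochondrial localization were measured by immunofluorescence with mitochondrial, cell and nuclear markers after fixation, read by laser-scanning cytometry.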
# * = called active by the depositor; ? = inconclusive; . = not tested or not shown; [ ] = another dose, or the depositor's remark. Compounds were not picked by outcome; any-hit rate near 4.4%.
SMILES,TRPV1 PAM,Sfp inh,ClpP mod,Menin-MLL FL inh,TRPML1 agonist,TRPML1 inh,PINK1 expr mod
CC1CCN(C(=O)CN2C(=O)C(=O)N(C(C)C)C2=O)c2ccccc2S1 (configuration not stated),-11,.,0.0%,.,0.0,-1,2.1%
CN(C)c1ccc(NC(=O)c2cccc(N3C(=O)C4C5C=CC(C5)C4C3=O)c2)cc1 (configuration not stated),16,14%,-6.0%,-0.5,0.1,17,4.8%[38.3 µM]
Cc1ccc(S(=O)(=O)N2C[C@H]3n4c(=O)ccc(=O)n4C[C@H](OC(=O)NCC4CCCCC4)[C@@]3(O)C2)cc1,.,.,0.9%,.,-0.1,27,-1.0%
CCOc1ccc(N(C)S(=O)(=O)c2ccc3c(c2)CCCN3C(C)=O)cc1,.,.,1.4%,.,1.2,-9,1.0%
Cc1ccc(-c2nnc(SCC(=O)NCC3CCCO3)nc2-c2ccc(C)cc2)cc1 (configuration not stated),-18,.,-4.5%,.,0.9,1,0.1%
CCC(C)[C@H](NC(=O)N1CCn2c1nc1ccccc12)C(=O)NCc1ccc(OC)cc1 (some centres not stated),-18,8%,.,.,0.5,-12,-0.7%
CC(=O)Nc1ccc(SCC(=O)NNC(=O)CN(C)S(=O)(=O)c2ccc(C)cc2)cc1,10,.,.,.,-0.4,-3,0.9%
C[C@H](NC(=O)[C@H](Cc1ccccc1)n1c(=O)[nH]c2ccccc2c1=O)C(=O)N1CCC(C(=O)O)CC1,-4,22%,?,-0.2,.,.,1.7%
CC(C)CCn1c(=O)c2sccc2n2c(CCCC(=O)Nc3ccc(F)c(Cl)c3)nnc12,.,.,-3.6%,.,2.3,2,-1.3%
CS(=O)(=O)CCC(C(=O)Nc1ccc2c(c1)OCO2)N1Cc2ccccc2C1=O (configuration not stated),1,10%,-1.6%,2.7,-0.5,10,0.2%
CCn1c(SCCN2CCOCC2)nc2c1c(=O)n(C)c(=O)n2C,-6,11%,-0.3%,0.9,0.8,-14,0.3%
Cc1cc(=O)[nH]c(Nc2cccc(Br)c2)n1,5,-4%,-3.3%,1.0,-1.4,1,-1.1%
CCOc1ccc(N(CC(=O)N2CCN(c3ccccc3OC)CC2)S(=O)(=O)c2ccc(C)cc2)cc1,-1,-6%,0.6%,-0.8,-0.2,1,-0.5%
O=C(CCS(=O)(=O)c1ccc(Cl)cc1)NCCN1C(=O)S/C(=C\c2ccccc2F)C1=O,2,0%,28µM*,5.5,-0.3,3,-1.8%
Cc1nc2sc3c(c2c(=O)n1/N=C/c1cccnc1)CCCC3,-7,12%,-1.7%,-0.7,0.0,?,-0.7%
O=C1CCc2cc(S(=O)(=O)Nc3ccccc3Cl)ccc2N1,-3,.,0.8%,.,-0.5,4,3.8%
CCC(CC)C(=O)Nc1cccc(C(=O)c2ccccc2)c1,6,13%,-1.7%,-0.7,0.9,6,4.0%[38.3 µM]
COc1cc(C(=O)N/C(=C\c2cn(C)c3ccccc23)C(=O)N2CCOCC2)cc(OC)c1OC,25,6%,-2.8%,4.2,0.2,1,1.1%
O=C(COC(=O)c1ccc(Cl)nc1)Nc1ccc2c(c1)CCC2,.,.,-0.8%,.,-0.2,13,1.6%
NS(=O)(=O)c1ccc(-c2ccc(/C=C3\NC(=S)NC3=O)o2)cc1,15,5.6µM*,-0.2%,?,-0.1,38,1.5%
CC1(C)CC(=O)C2=C(C1)OC(N)=C(C#N)C2c1ccc[nH]1 (configuration not stated),12,50µM*,.,?,0.7,12,-0.3%
Cc1ccc(C)c(N2CCN(C(c3ccccc3)c3nnnn3C(C)(C)C)CC2)c1 (configuration not stated),.,.,-3.1%,.,86*,.,1.4%
O=C(Nc1nnc(CCN2CCOCC2)s1)c1ccccc1,14,?,2.0%,3.2,-0.4,5,.
Cc1cccn2c(=O)cc(COc3cccc(NC(=O)Nc4cccc(Cl)c4)c3)nc12,.,.,-4.8%,.,3.8,6,3.2%
COc1ccc(CN2CCc3nc(Nc4ccccc4)ncc3C2)c(OC)c1OC,1,.,-5.4%,.,2.6,13,1.1%
# (further entries)
SMILES,TRPV1 PAM,Sfp inh,ClpP mod,Menin-MLL FL inh,TRPML1 agonist,TRPML1 inh,PINK1 expr mod
CCOC(=O)c1c(C)nc2ccccc2c1C,-8,2%,-1.4%,-1.5,-1.0,-13,4.0%
CN1CC(=O)N(CC(=O)Nc2cccc(S(=O)(=O)N3CCOCC3)c2)C1=O,-12,5%,.,0.1,0.1,6,-0.5%
COc1ccc(OCCCn2c(C3CC(=O)N(c4ccc(F)cc4)C3)nc3ccccc32)cc1 (configuration not stated),.,.,-7.1%,.,5.2,57,0.4%
Cc1ccc(-c2csc(=Nc3ccc(F)cc3)n2Cc2ccc3c(c2)OCO3)cc1C,.,.,-2.1%,.,-0.7,4,2.3%
O=C(Nc1cccc([N+](=O)[O-])c1)c1ccc2nsnc2c1,-9,12%,1.0%,.,1.3,16,0.1%
CN(C)c1ccc(Nc2ncnc3sc4c(c23)CCCC4)cc1,.,.,-0.9%,.,1.0,0,-5.7%
COc1ccc2[nH]c(C(=O)N3CCC(n4nccc4NC(=O)C4CC4)CC3)c(C)c2c1,5,4%,-13%,.,0.1,-1,0.1%
O=C(O)C1CCCN1S(=O)(=O)c1ccc2ccccc2c1 (configuration not stated),-7,16%,-4.5%,6.5,4.6,-20,-0.9%
CCOc1ccc(NC(=O)c2ccc(Cn3nc(C)cc3C)o2)cc1,-2,2%,-0.8%,-2.3,4.8,7,1.3%
CN(C)c1ccnc(-n2cccc2/C=N/OCc2ccc(F)cc2Cl)c1C#N,-9,4%,-0.7%,-1.9,1.0,-6,8.6%
COC(=O)c1sc2cccc(F)c2c1S(=O)(=O)NCc1ccc(F)cc1,.,.,-30%,.,1.9,30,1.1%
COc1ccccc1/C=N/NC(=O)c1cc2c(OC)c(OC)ccc2[nH]1,4,-20%,0.9%,-0.3,3.7,11,5.1%
COc1cc(OC)c(NC(=O)c2sc3ncn(CC(=O)N4CCN(c5ccccn5)CC4)c(=O)c3c2C)cc1Cl,2,1%,1.2%,.,0.3,1,9.3%
COc1ccc(NC(=O)Cn2cc(C(=O)c3ccc(C)c(C)c3)c(=O)c3cc(OC)ccc32)cc1,.,.,-3.3%,.,0.3,-4,0.6%
COC(=O)c1ccc(N2CCN(S(=O)(=O)c3ccc(C)cc3)CC2)c([N+](=O)[O-])c1,-9,4%,-3.9%,-2.1,1.4,-7,0.8%
CC1O[C@@H]2O[C@](O[C@H](C)CC[C@@H](C)O)(c3ccccc3)O[C@@H]2C[C@H]1O (some centres not stated),29,.,-3.2%,.,-0.3,7,3.5%
CC(=O)Nc1ccc(Nc2c3ccccc3nc3ccccc23)cc1,2,-9%,-5.2%,0.6,1.2,-5,-1.2%
Cc1cc(C)cc(S(=O)(=O)Nc2cccc(-c3ccc(N4CCOCC4)nn3)c2)c1,.,.,-6.2%,.,0.7,4,0.7%
COc1cccc(CNC(=O)CN(C)S(=O)(=O)c2ccc3c(c2)CC(C)N3C(C)=O)c1 (configuration not stated),8,16%,-0.5%,0.1,-0.6,6,1.4%
O=C(COC(=O)c1cc(=O)c2ccccc2o1)NCc1ccc(Cl)cc1,.,.,0.9%,.,-0.1,-27,1.5%
COC(=O)COn1c(SC(C)C)nc2ccccc2c1=O,14,-3%,-2.6%,5.1,0.7,5,-2.9%
CC(C)CN(C(=O)C1=NN(c2ccccc2)C(=O)CC1)c1c(N)n(Cc2ccccc2)c(=O)[nH]c1=O,-17,.,0.2%,.,1.0,-8,0.6%
COc1ccccc1-c1noc(CCC(=O)Nc2cccnc2)n1,.,.,0.9%,.,-0.2,-2,-0.3%
CCN(CC)CC(=O)Nc1cccc2c1C(=O)c1ccccc1C2=O,4,7%,0.8%,-3.5,4.8,17,3.0%
COc1ccccc1N1CCN(C(=O)CN2C(=O)COc3ccc(S(=O)(=O)N4CCOCC4)cc32)CC1,.,.,-1.4%,.,1.5,-10,-0.3%

# Arranged by number of heavy atoms (descending): part of the list above
SMILES,TRPV1 PAM,Sfp inh,ClpP mod,Menin-MLL FL inh,TRPML1 agonist,TRPML1 inh,PINK1 expr mod
COc1cc(OC)c(NC(=O)c2sc3ncn(CC(=O)N4CCN(c5ccccn5)CC4)c(=O)c3c2C)cc1Cl,2,1%,1.2%,.,0.3,1,9.3%
COc1ccc(NC(=O)Cn2cc(C(=O)c3ccc(C)c(C)c3)c(=O)c3cc(OC)ccc32)cc1,.,.,-3.3%,.,0.3,-4,0.6%
O=C(Nc1cccc([N+](=O)[O-])c1)c1ccc2nsnc2c1,-9,12%,1.0%,.,1.3,16,0.1%

# (next part)
SMILES,TRPV1 PAM,Sfp inh,ClpP mod,Menin-MLL FL inh,TRPML1 agonist,TRPML1 inh,PINK1 expr mod
CS(=O)(=O)N1CCc2cc(C(=O)N3CCCC3)ccc21,3,25%,.,-1.5,-0.2,-11,1.6%
CCN(CC)c1ccc(CNc2ccc(Br)cn2)cc1,9,-8%,-5.3%,18,0.0,1,0.1%
CCCc1nnc(NS(=O)(=O)c2ccccc2)s1,12,6%,0.0%,-2.8,-1.0,-3,0.3%
CCOC(=O)c1cccc(C(=O)OCC)n1,-13,15%,0.4%,-3.7,-1.0,-4,1.4%
COCCCNc1nc2ccccc2nc1NS(=O)(=O)c1cccc(C)c1,-2,15%,-2.0%,-3.2,-0.9,-4,0.4%
CCc1nc(N)nc(N)c1-c1ccc(Cl)c([N+](=O)[O-])c1,.,.,-0.7%,.,15,7,-1.4%
CCOC(=O)c1c(O)c2cc(Cl)ccc2n(CC)c1=O,-7,?,.,3.6,1.0,-13,0.1%
O=C(Cc1ccccc1)NCC(=O)Nc1cccc(Br)c1,-25,-2%,.,2.9,0.1,1,1.5%
O=c1[nH]cccc1-c1nc2ccccc2n1Cc1ccc(F)cc1,-5,6%,3.6%,-2.2,1.7,15,-2.4%
O=C(Nc1ncc2c(n1)-c1ccccc1CC2)c1ccccc1,.,3%,0.8%,-0.3,0.3,2,-2.1%
Cc1cc(C(=O)N/N=C/c2ccc(N(C)C)o2)cs1,?,13µM*,-0.6%,.,0.1,25,-0.6%
COc1ccccc1NC(=O)c1cc(-c2ccc(OC)c(OC)c2)nc2ccccc12,3,-4%,.,-0.7,0.0,-2,14%
